From PubChem
WNV protease inh: blocks West Nile virus NS2B-NS3 protease activity. P06935. z-score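 (tested at a level between 10 and 100 µM)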. actives 0.18% (n = 65,000). WNV NS2B-NS3 protease, fluorogenic substrate Ex360/Em465; stronger effect = lower value. AID 577;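 active means z-score at -3 or under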;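 further: score is relative to mean and spread of the compound wells of a plate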
Target sequence (P06935 1371-1501 limits assumed): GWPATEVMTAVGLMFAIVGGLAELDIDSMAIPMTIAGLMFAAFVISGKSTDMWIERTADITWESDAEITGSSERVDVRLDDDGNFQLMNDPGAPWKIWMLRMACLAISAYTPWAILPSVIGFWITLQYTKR
Target sequence (P06935 1502-1679 limits assumed): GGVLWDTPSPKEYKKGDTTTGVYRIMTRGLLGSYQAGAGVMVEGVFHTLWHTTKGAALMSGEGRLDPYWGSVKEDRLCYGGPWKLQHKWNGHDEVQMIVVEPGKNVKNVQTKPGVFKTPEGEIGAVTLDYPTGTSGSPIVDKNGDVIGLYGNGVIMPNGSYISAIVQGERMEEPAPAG
* = called active by the depositor; & = joins results of further samples.

SMILES	WNV protease inh
CCc1nnc(NC(=O)c2cccc(OC)c2)s1	2.8
CCS(=O)(=O)C(=C(Nc1ccc(OC)cc1)Nc1ccc(OC)cc1)S(=O)(=O)CC	-0.88
CCCOC(=O)CN1C(=O)c2ccc(C(=O)OCCC)cc2C1=O	-0.72
COc1ccccc1NC(=O)CSc1ccc2nnc(-c3ccncc3)n2n1	0.34
COc1ccc(NS(=O)(=O)c2ccc(Br)s2)cc1OC	-0.45
CCc1nnc(NC(=O)Nc2ccc(OC)cc2)s1	-0.35
COc1cccc(C(=O)Nc2nnc(-c3ccc(F)cc3)o2)c1	0.84
CC12CCC(C(=O)Nc3ccc4c(c3)OCCO4)(OC1=O)C2(C)C (configuration not stated)	-0.1
COc1ccc(OC)c(NC(=O)CC(Cc2ccccc2OC)C(=O)O)c1 (configuration not stated)	-0.79
O=C1C=C(NCC2CCCO2)C2(CCCCC2)O1 (configuration not stated)	-0.44
CCC1CCCCN1CCCn1c(=S)[nH]c2ccccc2c1=O (configuration not stated)	-0.44
COC(=O)c1cccc(Oc2nc3c(c(=O)n(C)c(=O)n3C)n2C(C)C)c1	-0.66
Cc1ccccc1C(=O)NCCN=C1NS(=O)(=O)c2ccccc21	1
CCC(C)c1c(O)nc(SCc2ccccc2)[nH]c1=O (configuration not stated)	-0.6
Cc1cc(C)n(-c2nc(NCC3CCCO3)c3c4c(sc3n2)COC(C)(C)C4)n1 (configuration not stated)	0.11
CCOC(=O)CCCNC(=O)c1cncc(Br)c1	0.83
COC(=O)c1c(-c2ccc(F)cc2)csc1NC(=O)c1ccco1	-0.06
CN=C1SC(CC(=O)Nc2cc(Cl)ccc2Cl)C(=O)N1C (configuration not stated)	-1.9
Cc1ccc(CNC(=O)C2c3ccccc3C(=O)N(C)C2c2c[nH]c3ccccc23)o1 (configuration not stated)	-1.5
CCOC1OC2C(CO)OC(n3cnc4c(N)ncnc43)C2O1 (configuration not stated)	-0.96

As entered above:
COc1ccccc1NC(=O)CSc1ccc2nnc(-c3ccncc3)n2n1 | WNV protease inh = 0.34
COc1ccc(NS(=O)(=O)c2ccc(Br)s2)cc1OC | WNV protease inh = -0.45
Cc1cc(C)n(-c2nc(NCC3CCCO3)c3c4c(sc3n2)COC(C)(C)C4)n1 (configuration not stated) | WNV protease inh = 0.11
CCc1nnc(NC(=O)Nc2ccc(OC)cc2)s1 | WNV protease inh = -0.35
COC(=O)c1cccc(Oc2nc3c(c(=O)n(C)c(=O)n3C)n2C(C)C)c1 | WNV protease inh = -0.66

More results
SMILES	WNV protease inh
CCCCCOC(=O)CSc1nnc(-c2ccccc2)c(=O)[nH]1	1.1
O=C1CSC(c2ccccn2)N1c1ccccc1 (configuration not stated)	0.79
COc1cc(OC)c(S(=O)(=O)NCc2ccco2)cc1S(=O)(=O)NCc1ccco1	0.19
CCCCOC(=O)c1ccc(N2C(=O)CC(N3CCN(C/C=C/c4ccccc4)CC3)C2=O)cc1 (configuration not stated)	-1.6
N#Cc1c(N)sc(=S)c2c1CCN(Cc1ccccc1)C2	1.1
N#Cc1c(NC(=O)CN2CCCCC2)sc2c1CCC2	0.09
COc1ccc(-c2nnc(NC(=O)c3ccccc3C)o2)cc1	-0.23
O=S1(=O)C=C(N2CCOCC2)c2ccccc21	-0.8
COc1ccccc1CNC(=O)C1CCCN(S(=O)(=O)c2cccc3cccnc23)C1 (configuration not stated)	-0.3
CNC(=O)c1cccc(N2CCCC2=O)c1	0.98
Fc1cc(F)c(F)c(SCCc2ccncc2)c1F	0.27
COC(=O)CCC(=O)Oc1ccc(OC(=O)CCC(=O)OC)cc1	1.4
N#Cc1ccccc1NC(=O)Nc1cccc(Cl)c1	-0.68
COc1ccc(OC)c(C(c2nnnn2Cc2ccccc2)N2CCN(C3CCCCC3)CC2)c1 (configuration not stated)	-0.62
CC(=O)Nc1ccc(S(=O)(=O)N(CC(=O)O)Cc2ccccc2)cc1	-0.7
O=S(=O)(c1ccc(Cl)cc1)N1CCN(c2ccc(N3CCOCC3)nn2)CC1	0.21
Cc1ccc2nc(SCC(=O)O)nc(C)c2c1	-0.66
CC1(C)CC(=O)C2=C(C1)N(CC1CCCO1)C(=O)C2(O)C(F)(F)F (configuration not stated)	-0.24
O=C(CSc1nnc(CNC(=O)c2cccs2)o1)NCc1ccc(F)cc1	1
CCNC(=O)CN(c1ccc(C)cc1)S(=O)(=O)c1ccc(SC)cc1	-0.9

Part of the list above, as comma-separated lines.
Compound,WNV protease inh
CCCCOC(=O)c1ccc(N2C(=O)CC(N3CCN(C/C=C/c4ccccc4)CC3)C2=O)cc1 (configuration not stated),-1.6
N#Cc1c(N)sc(=S)c2c1CCN(Cc1ccccc1)C2,1.1

(further entries)
SMILES	WNV protease inh
CC(=O)N1c2c(cc(Br)cc2S(=O)(=O)N2CCN(c3ccccn3)CC2)CC1C (configuration not stated)	0.52
CC1CCN(C(=O)CSc2nnc(CNC(=O)c3ccco3)o2)CC1	-1.1
O=C(CSc1nnc(Cn2c(=O)sc3ccccc32)n1-c1ccccc1)NCC1CCCO1 (configuration not stated)	0.44
O=S1(=O)N=C(Nc2ccc(N3CCOCC3)cc2)c2ccccc21	-1.6
CC1CCCN(C(=O)CSCC(=O)N=c2sc3ccccc3n2C)C1 (configuration not stated)	0.83
CCOC(=O)c1[nH]c(C(=O)O)c(CCN(CC)CC)c1C	-1.3
COc1ccccc1N1CCN(c2ncnc3nc[nH]c23)CC1	0.69
COc1cc2c(cc1NC(=O)c1ccco1)CCCC2	0.97
Cc1ccc(-c2ccc(CCC(=O)O)n2CC(=O)O)cc1	-0.78
COc1ccc(S(=O)(=O)NCC(c2cccnc2)N2CCN(c3ccccc3)CC2)cc1C (configuration not stated)	-0.35
Cc1cccc(-n2c(N)cc(=O)nc2SCC(=O)Nc2ccccc2)c1	-0.66
Cc1ccc(C)n1C(Cc1ccccc1)C(=O)O (configuration not stated)	-1.5
Cc1ccc(S(=O)(=O)NC2(C(F)(F)F)C(=O)Nc3c2c(=O)n(C)c(=O)n3C)cc1 (configuration not stated)	1.1
NC(=O)c1nsc(C(=O)N(CCc2ccccc2)C(C(=O)NC2CCCC2)c2ccco2)c1N (configuration not stated)	0.51
CCC(C)NC(=O)C1CCN(S(=O)(=O)c2cccnc2)CC1 (configuration not stated)	-1
CC(C)(C)n1nc2c(c1NC(=O)Cc1ccc(F)cc1)CSC2	0.82
Cc1ccc(-n2c(SCC(=O)OC(C)C)nnc2-c2ccncc2)cc1	-1.2
CCC(C)c1ccc(NC(=O)CC(C)=O)cc1 (configuration not stated)	-2
CCN(CC)c1nc(Nc2ccc(Cl)cc2)nc(OCC#N)n1	-1.1
O=C(Nc1ccc2c(c1)OCCO2)C1CCCN1S(=O)(=O)c1cccc2cccnc12 (configuration not stated)	-1.1
CCOC(=O)c1c(C)n(C)c2ccc(OC)c(NS(=O)(=O)c3ccc(Cl)s3)c12	0.14
Cc1noc(C)c1S(=O)(=O)N1CCC(C(=O)NCCN2CCC(C)CC2)CC1	-0.61
CCn1c(CSc2nc3ccccc3s2)nc2ccccc21	-0.52
N#Cc1ccc(N2CCN(C(=O)c3cccc(F)c3)CC2)c(F)c1	-0.87
CCOc1ccc(C(C)=O)cc1N1C(=O)C2C3C=CC(C3)C2C1=O (configuration not stated)	-0.42
CCOc1ccccc1NC(=O)CSc1ccccc1	1.9
Cc1ccc(S(=O)(=O)NC(=O)c2cc(C)n(CCCN3CCOCC3)c2C)cc1	-0.61
Cc1cc(C)n(C(=O)c2ccc(NC(=O)CC(C)C)cc2)n1	2.5
C=CCn1nnc2sc3c(c2c1=O)CCC(C)C3 (configuration not stated)	-0.05
COc1ccc(N2C(=O)CCC(C(=O)N3CCCCC3)C2c2ccc(OC)c(OC)c2)cc1 (configuration not stated)	-0.62
CCS(=O)(=O)N1CCN(C(C)CCc2ccccc2)CC1 (configuration not stated)	0.86
Cc1ccc(C)c(NS(=O)(=O)c2cc(C(N)=O)ccc2C)c1	-0.15
COc1ccc(-c2cc(C(=O)NCC(C)C)no2)cc1	0.31
COc1ccc(Oc2ccc(S(=O)(=O)N3CCCCC3)cc2S(=O)(=O)N2CCCCC2)cc1	2.6
O=C(COc1ccc(Cl)cc1)NCc1nnc(SCC(=O)N2CCCc3ccccc32)o1	0.85
CCCC(=O)Nc1ccc(C(=O)NCC(=O)OCC)cc1	-2.1
CCCCOC(=O)Nc1ccccc1C(=O)N1CCCC1	0.44
COC(=O)c1[nH]c2c(c1C)C(=O)CC(c1ccc(C)cc1)C2 (configuration not stated)	-0.86
Cc1onc(-c2ccccc2Cl)c1C(=O)Nc1ccc(S(=O)(=O)N2CCCC2)cc1	0.31
COc1ccc(C(=O)/C=C/Nc2cc(C)on2)cc1	0.54
CSc1nsc(SC)c1NC(=O)Nc1ccccn1	-0.35
CCOC(=O)N1CCC(NC(=O)c2ccc3c(c2)sc2nc(-c4ccccc4)cn23)CC1	0.23
COc1ccc(NC2c3ccccc3C(=O)N2c2cccnc2)cc1Cl (configuration not stated)	-0.18
COCCNC(=O)CN(c1cc(Cl)ccc1OC)S(C)(=O)=O	-0.43
COc1ccc(N2CCN(Cc3nc4c(c(=O)n(C)c(=O)n4C)n3Cc3ccccc3C)CC2)cc1	-0.07
Cc1cc(C)nc(SCC(=O)Nc2ccc(S(=O)(=O)Nc3onc(C)c3C)cc2)n1	0.98
CCc1ccc(NC(=O)c2cc(-c3ccc(OC)cc3)on2)cc1	0.03
CCOC(=O)N1CCN(CCC(=O)Nc2ccc(OC)cc2)CC1	-0.38
c1cncc(-c2nc3c4ccccc4nc(N4CCC(N5CCCCC5)CC4)n3n2)c1	0.14
O=C(Nc1cc(Cl)ccc1Cl)c1noc2c1CCCC2	0.73
Cc1ccc(C(=O)Oc2ccc3c(c2)ncn3C)cc1	1.1
O=C(CN1C(=O)CSc2ccccc21)Nc1ccccc1C(=O)N1CCOCC1	0.32
CC(Oc1ccc(Cl)cc1Cl)c1nc(-c2ccccn2)no1 (configuration not stated)	-1.7
COc1ccc(NC(=O)CSc2nnc(CNC(=O)c3ccco3)o2)c(OC)c1	-0.69
CC1(C)Cc2c(C#N)c(N)sc(=S)c2CS1	-0.64
Nc1nnnn1/N=C/c1ccccc1OCc1ccc(Cl)cc1Cl	-1.5
Cc1cc(NC(=O)CS(=O)(=O)c2cn(Cc3cccc(F)c3)c3ccccc23)no1	1.4
CC(C)Oc1ccc(N2CC(C(=O)Nc3ccc4c(c3)OCO4)CC2=O)cc1 (configuration not stated)	0.56
CCN1C(=O)CSC1=NC1C2CC3CC(C2)CC1C3 (configuration not stated)	1.9
CCS(=O)(=O)N1CCN(S(=O)(=O)c2ccc(F)cc2)CC1	0.09

Grouped by structure: the entries above containing a furan ring, fused or not (7)
SMILES	WNV protease inh
COC(=O)c1c(-c2ccc(F)cc2)csc1NC(=O)c1ccco1	-0.06
Cc1ccc(CNC(=O)C2c3ccccc3C(=O)N(C)C2c2c[nH]c3ccccc23)o1 (configuration not stated)	-1.5
COc1cc(OC)c(S(=O)(=O)NCc2ccco2)cc1S(=O)(=O)NCc1ccco1	0.19
CC1CCN(C(=O)CSc2nnc(CNC(=O)c3ccco3)o2)CC1	-1.1
COc1cc2c(cc1NC(=O)c1ccco1)CCCC2	0.97
NC(=O)c1nsc(C(=O)N(CCc2ccccc2)C(C(=O)NC2CCCC2)c2ccco2)c1N (configuration not stated)	0.51
COc1ccc(NC(=O)CSc2nnc(CNC(=O)c3ccco3)o2)c(OC)c1	-0.69

Carrying on:
SMILES	WNV protease inh
Cc1ccc(S(=O)(=O)NC(C)(C)CSc2nnc(N)s2)cc1	-0.85
Cc1ccc(CN2CCN(CC(=O)NCc3ccc(Cl)cc3)C2=O)cc1	2.2
O=C(C1CCN(S(=O)(=O)c2cccnc2)CC1)N1CCN(c2ccccc2Cl)CC1	0.62
Cn1c(SCC(=O)NCc2ccco2)nc2ccccc2c1=O	1.3
CCOc1cccc(C(=O)Nc2ccccc2OC(F)F)c1	0.63
CCOC(=O)N1CCN(CC(=O)Nc2ccc(C)cc2)CC1	1.3
Cc1noc(C)c1S(=O)(=O)N1CCC(C(=O)N2CCN(C3CCCC3)CC2)CC1	0.29
CCN(CC)S(=O)(=O)c1ccc(C(=O)NCc2n[nH]c(=S)n2-c2ccccc2OC)cc1	-1.1
N#CC1=C(N)Oc2n[nH]c(-c3ccc(F)cc3)c2C1c1cccnc1 (configuration not stated)	-0.9
CCOc1ccccc1NC(=O)Cn1c(=O)n(CCC(=O)NC2CCCC2)c(=O)c2ccccc21	0.97
Cc1ccc(C(C(=O)NC2CCCCC2)N2CCOCC2)cc1 (configuration not stated)	-0.02
CCOC(=O)CNC(=O)Nc1ccccc1C(=O)OC	-0.43
Cc1cc(NCCCN2CCOCC2)n2nc(C)c(-c3ccc(F)cc3)c2n1	1.2
c1ccc2c(c1)CCCC2C1=NCCN1 (configuration not stated)	0.97&-0.09
CCCC12CN3CC(C)(CN(C1)C31CCCCC1)C2=O	0.12
CC(=O)COc1cc(C)cc2oc(=O)c(C)c(C)c12	-0.17
C(=N\c1nccs1)/c1c[nH]c2ccccc12	0.39
O=C(CSc1ccc2nnc(-c3ccccn3)n2n1)N1CCN(c2ccccc2)CC1	1.4
COc1ccc(NCCNc2ccc(OC)cc2)cc1	-0.06
CN(Cc1ccccc1)S(=O)(=O)c1ccc(S(=O)(=O)N2CCN(CCC#N)CC2)cc1	-0.25

Of the compounds above, these contain a CF3 group:
SMILES	WNV protease inh
CC1(C)CC(=O)C2=C(C1)N(CC1CCCO1)C(=O)C2(O)C(F)(F)F (configuration not stated)	-0.24
Cc1ccc(S(=O)(=O)NC2(C(F)(F)F)C(=O)Nc3c2c(=O)n(C)c(=O)n3C)cc1 (configuration not stated)	1.1

More structures follow.
SMILES	WNV protease inh
O=C(NCc1nnc(SCC(=O)N2CCCC2)o1)c1ccccc1F	0.04
O=C(CSc1ccc2nnc(-c3cccnc3)n2n1)N1CCOCC1	-0.74
Cn1c(=O)[nH]c(=O)c2[nH]c(CN3CCN(Cc4ccccc4)CC3)nc21	0.03
COc1ccc(-c2nc3cnccn3c2Nc2ccc3c(c2)OCO3)cc1	-0.65
O=C(O)C1C2C=CC3(O2)C1C(=O)N1c2ccccc2COC13 (configuration not stated)	1.2
O=C(Nc1nnc(-c2ccc(F)cc2)o1)c1ccco1	-0.39
O=C1NC(Nc2nc3ccccc3s2)(C(F)(F)F)C(=O)N1C1CCCCC1 (configuration not stated)	-0.32
CCS(=O)(=O)N1CCC(C(=O)NCC2CCCO2)CC1 (configuration not stated)	-0.31
C=C(C)Cn1c(N2CCN(CC)CC2)nc2c1c(=O)[nH]c(=O)n2C	-0.51

An excerpt (hit frequency here may not be typical).
